Cruzain inh noDet: blocks cruzain activity in detergent-free assay | purified cruzain, Z-FR-AMC fluorescence, no detergent | Potency, µM, without a hit: max response, negative = inhibition, usual class: inhibitors | 200,000 compounds, 2.3% hits; active = well fitted curve in the direction sought with a large enough effect; inconclusive = small, poorly fitted or top-dose-only effect, or another doubt; inactive = no such curve, though single readings can be large; an effect the other way counts as inactive or inconclusive;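 note: plate controls were enzyme without inhibitor for no effect and buffer without enzyme for full effect; nearly all actives have a fitted effect of over 40% in size; top concentration of the series not given in the record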
Target sequence (P25779 123-467 limits assumed): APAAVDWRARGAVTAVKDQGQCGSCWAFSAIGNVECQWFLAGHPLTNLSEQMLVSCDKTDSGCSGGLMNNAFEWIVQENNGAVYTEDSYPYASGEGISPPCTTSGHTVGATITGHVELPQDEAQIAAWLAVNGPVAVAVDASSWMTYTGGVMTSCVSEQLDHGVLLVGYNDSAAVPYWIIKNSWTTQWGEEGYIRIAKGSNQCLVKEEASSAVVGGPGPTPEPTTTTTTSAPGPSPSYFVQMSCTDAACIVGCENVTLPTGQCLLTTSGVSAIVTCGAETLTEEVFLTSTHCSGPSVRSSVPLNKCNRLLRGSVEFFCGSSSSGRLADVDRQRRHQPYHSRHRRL
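Detergent-free condition (0.00005% Triton X-100) in acetate buffer pH 5.5 with DTT. 1.5 nM enzyme and compound were pre-mixed 15 min, then 2 uM Z-FR-AMC substrate added; reaction progress from fluorescence change between first and third reads (60 s).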
SARS PLpro yeast: inhibitors of SARS-CoV papain-like protease in yeast | AID 485353 | 330,000 compounds, 0.19% hits | Potency, µM (top dose mostly 32.9 µM), for the others: at the top dose activity, positive = growth rescue | S. cerevisiae expressing SARS-CoV PLpro, growth rescue; control for the full effect not named in the record; note: 0% is about no effect; nearly all actives have a fitted effect of over 55% in size; growth read by luminescence after 48 h
Marburg entry inh: inhibitors of Marburg virus binding or cell entry; Marburg virus pseudotyped entry inhibition, cell reporter; control for the full effect not named in the record; about a third of the inactives were read at about 46 µM; Potency, µM (doses to about 37.8 µM), for inactives: at the top dose activity change, negative = inhibition, hits mostly inhibitors; 300,000 compounds, 1.8% hits; active = well fitted inhibition curve with a large enough effect; inconclusive = small, poorly fitted or top-dose-only effect, or effect the other way; inactive = flat fitted curve, though single readings scatter; tested in HEK293 cells; about a fifth of its hits are not listed in these tables; note: % is set by controls: 0 for no effect and ±100 for the full control effect; luciferase read-out
StopGo reporter: FMDV 2A StopGo reporter, luciferase signal; human cells with a luciferase reporter of 2A StopGo recoding; control for the full effect not named in the record; Potency, µM (highest dose often 57.9 µM), without a hit: at the highest dose signal change, negative = less light; 410,000 compounds, 1.2% hits; AID 1159524; active = well fitted falling curve with a large enough effect; inconclusive = small, poorly fitted or top-dose-only effect; inactive = no such curve, though single readings can be large or run the other way; tested in HEK293T cells; note: % is set by controls: 0 for no effect and ±100 for the full control effect; nearly all actives have a fitted effect of over 45% in size; luciferase light after 4 h
Cruzain Triton: blocks cruzain activity in presence of Triton detergent; Potency, µM, inactives show max response, negative = inhibition, usual class: inhibitors; purified cruzain, Z-FR-AMC fluorescence, 0.01% Triton; 200,000 compounds, 0.43% hits; P25779; active = well fitted curve in the direction sought with a large enough effect; inconclusive = small, poorly fitted or top-dose-only effect, or another doubt; inactive = no such curve, though single readings can be large; an effect the other way counts as inactive or inconclusive;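 note: plate controls were neutral wells for no effect and buffer without enzyme for full effect; nearly all actives have a fitted effect of over 40% in size; top concentration of the series not given in the record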
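Detergent-containing run (0.01% Triton X-100) in acetate buffer pH 5.5 with 5 mM DTT: enzyme at 1.5 nM final, 15 min compound preincubation at room temperature, then 2 uM Z-FR-AMC substrate. Activity taken as 60 s fluorescence increase at 360/450 nm.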
NS1 inh: influenza NS1 inhibition | 270,000 compounds, 0.4% hits | Potency, µM (highest dose often 46.1 µM), inactives show at the highest dose activity, positive = more growth | S. cerevisiae slowed by influenza A NS1, growth recovery by OD600; note: actives are rising curves; nearly all actives have a fitted effect of over 50% in size
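Read-out: OD600 growth recovery of NS1-expressing budding yeast. Cells grown overnight at 30C in -URA glucose medium, washed, resuspended and diluted 1:100 in 2% galactose assay medium, pH 6.0. Same strain lacking NS1 served as positive control.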
LASV entry inh: Lassa virus entry inhibition; Lassa virus pseudotype entry inhibition, cell reporter; control for the full effect not named in the record; Potency, µM (doses to about 37.9 µM), for inactives: at the highest dose activity change, negative = inhibition, usual class: inhibitors; 300,000 compounds, 1.2% hits; AID 540256; active means well fitted inhibition curve with a large enough effect; inconclusive means small, poorly fitted or top-dose-only effect, or effect the other way; inactive means flat fitted curve, though single readings scatter; tested in HEK293 cells; note: % is set by controls: 0 for no effect and ±100 for the full control effect; nearly all actives have a fitted effect of over 50% in size; luciferase read-out
RE007 growth inh: less growth of the S. pombe RE007 Vpr strain | S. pombe RE007 Vpr strain, BacTiter-Glo ATP luminescence, 24 h; control for the full effect not named in the record | Potency, µM (highest dose often 92.2 µM), for inactives: top-dose activity change, negative = less growth | 360,000 compounds, 0.21% hits | AID 651644; active = well fitted falling curve with a large enough effect; inconclusive = small, poorly fitted or top-dose-only effect; inactive = no such curve, though single readings can be large or run the other way;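 note: % is set by controls: 0 for no effect and ±100 for the full control effect; nearly all actives have a fitted effect of over 50% in size; the assay follows cell death caused by Vpr and the record does not say whether a fall means rescue or toxicity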
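Fission yeast RE007 carrying one integrated HIV-1 vpr copy, seeded at OD 0.01 in PMG+AL medium with 23 nL pinned compound. Grown 24 h at 30 degrees; viability read by BacTiter-Glo luminescence after 5 min.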
* hit, by the source's call; ? = inconclusive; / = no result given; [ ] = another dose, or the depositor's remark. Unless noted, calls come from the whole dose curve; as a rule, active means well fitted rising curve with a large enough effect; inconclusive means small, poorly fitted or top-dose-only effect; inactive means no such curve, though single readings can be large or run the other way. Potency is the fitted concentration of half-maximal effect.

SMILES	Cruzain inh noDet	SARS PLpro yeast	Marburg entry inh	StopGo reporter	Cruzain Triton	NS1 inh	LASV entry inh	RE007 growth inh
O=C(NCCc1ccc(C(F)(F)F)cc1)C1CCC(=O)N(C2CC2)C1 (stereo not given)	/	2%	24%	-18%	/	3%	17%	17%
Cc1cc(Nc2ccccc2)nn1C(=O)c1ccc(Br)cc1	-4%	-56%	1%	-11%	-6.5%	-10%	3%	-13%
Clc1ccc(-c2nnc(-c3ccco3)nc2N2CCCCC2)cc1	-27%	-60%	0%	-18%	-21%	-10%	5%	8%
COCCn1nnnc1C(c1ccc(OC)c(OC)c1)N1CCN(c2nc3ccccc3s2)CC1 (stereo not given)	?	1%	?	0%	-27%	-12%	-5%	146%
O=C(N/N=C/c1cccc(Oc2ccccc2)c1)c1cccc(Br)c1	?	-7%	?	?	-2.0%	3%	?	5%
COC(=O)c1ccc(-n2nnnc2SCC(=O)Nc2ccccc2OC)cc1	3%	-3%	-4%	/	2.1%	-1%	-4%	-14%
CCc1ccccc1NC(=O)N1CCc2ccccc21	/	-2%	/	15%	/	-33%	/	-5%
O=S(=O)(c1ccccc1)N1CCNc2ccccc21	/	/	2%[46.1 µM]	12%	/	/	10%[46.1 µM]	3%
Cc1nn(-c2ccc(F)cc2)c2nc(N)c(C#N)c(-c3cccs3)c12	-27%	-4%	-6%[46.1 µM]	?	-8.7%	9%	-23%	-22%
Cc1cccn2c(Nc3ccc4c(c3)OCCO4)c(-c3ccc(Br)o3)nc12	?	/	-29%[46.1 µM]	16%	-7.4%	/	-5%[46.1 µM]	/
O=C(NCc1ccccn1)C(=O)NCc1ccccn1	/	-1%	7%[46.1 µM]	-6%	/	/	1%[46.1 µM]	-4%
CCOc1ccc(NS(=O)(=O)c2ccc3c4c(cccc24)C(=O)N3)cc1	-4%	/	?	6%	-11%	/	?	/
C/C(=N\NC(=O)c1cc(-c2cccc([N+](=O)[O-])c2)n[nH]1)c1ccc(F)cc1	/	0%	10%	3%	/	0%	-9%	11%
CC(C)CSc1ncc(-c2cccc(C(F)(F)F)c2)cn1	-4%	-1%	13%	15%	-8.6%	8%	12%	-10%
COc1ccc(C(=O)N2CCN(c3cccc(Cl)c3)CC2)c(OC)c1	10%	2%	?	0%	-7.4%	-7%	?	1%
COc1ccc(Cc2nc(C(=O)NCc3ccccc3OC)cs2)cc1	-10%	-5%	0%	-25%	-1.0%	-25%	-7%	2%
O=C(N/N=C/c1c[nH]c2ccc(Br)cc12)c1ccn(Cc2ccc(Cl)cc2Cl)n1	?	-1%	?	?	1.3%	?	?	7%
Cc1cccc(/C(N)=N/OC(=O)Cc2cccc3ccccc23)c1	/	-6%	?	9%	/	-50%	?	-3%
COc1ccc(CNC(=O)CN2C(=O)COc3ccc(S(=O)(=O)N4CCCC4)cc32)cc1	/	15%	/	-7%	/	5%	/	2%
CCN(c1ccc(C)cc1C)S(=O)(=O)c1nnc(NC(=O)CC(C)C)s1	8%	/	/	-19%	-4.6%	/	14%[46.1 µM]	/
CCc1noc(-c2ccc(NCc3ccccc3)c([N+](=O)[O-])c2)n1	?	/	?	19%	-4.6%	/	3%[46.1 µM]	/
COc1ccc(CN2CCC(N(CCc3ccccc3)Cc3ccccc3)CC2)c(OC)c1	/	3%	?	18µM*	/	/	/	-3%
CC(=O)Nc1ccc(NC(=O)Nc2sc3nc4n(c(=O)c3c2C)CCC(C)CC4)cc1 (stereo not given)	?	/	-26%[46.1 µM]	-13%	-4.5%	/	/	/
O=C(O)C1CSC(CCc2ccccc2)N1 (stereo not given)	2%	-2%	0%	3%	-1.7%	-17%	-3%	6%

Random excerpt: two records from the list.
SMILES	Cruzain inh noDet	SARS PLpro yeast	Marburg entry inh	StopGo reporter	Cruzain Triton	NS1 inh	LASV entry inh	RE007 growth inh
CC(C)CSc1ncc(-c2cccc(C(F)(F)F)c2)cn1	-4%	-1%	13%	15%	-8.6%	8%	12%	-10%
O=C(O)C1CSC(CCc2ccccc2)N1 (stereo not given)	2%	-2%	0%	3%	-1.7%	-17%	-3%	6%

Later entries:
SMILES	Cruzain inh noDet	SARS PLpro yeast	Marburg entry inh	StopGo reporter	Cruzain Triton	NS1 inh	LASV entry inh	RE007 growth inh
N#CCCN(NC1=NS(=O)(=O)c2ccccc21)C(=O)c1ccccc1Br	/	1%	?	-8%	/	3%	4%[46.1 µM]	10%
CCC(C)NC(=O)Cn1c(=O)n(CC2CCC(C(=O)NC)CC2)c(=O)c2sccc21 (stereo not given)	-10%	/	/	-11%	-1.5%	/	-2%[46.1 µM]	/
O=C1CC(SC(=Nc2ccccc2)Nc2ccccc2)C(=O)N1c1cccc2ccccc12 (stereo not given)	-17%	2%	?	4%	3.4%	27%	?	-4%
CCn1c(/C=C/c2c[nH]c3ccccc23)nc2ccccc2c1=O	/	-1%	19%[46.1 µM]	64%[activator]	/	4%	/	1%
COc1ccc(C(=O)C2CCCN(Cc3ccc4nonc4c3)C2)c(C)c1 (stereo not given)	/	-4%	/	?	/	-1%	/	-13%
CCc1ccc(NC(=O)CC(c2ccc(C)cc2)N2Cc3ccccc3C2=O)cc1 (stereo not given)	1%	/	/	28%	-0.1%	/	15%[46.1 µM]	/
Cc1cc(C)c2c(c1)c(C)cc1nnc(SCC(=O)NCc3ccco3)n12	3%	-11%	-2%	-5%	-3.8%	-2%	8%	-6%
Cc1cccn2c(=O)nc(SCC(=O)NC3CCCC3)nc12	/	1%	4%[46.1 µM]	-12%	/	/	-1%	-2%
CCC(=Nc1ccccc1N)c1c(O)[nH]c(=O)[nH]c1=O	/	-6%	-29%	46%[activator]	/	-7%	?	-20%
CCCCSC1=C(C#N)C(c2ccccc2C)C(C(=O)OCC)C(=O)N1 (stereo not given)	-2%	8%	?	/	-1.2%	-74%	-26%	-10%
CCOC(=O)CNC(=O)CSc1nnc(-c2ccco2)n1Cc1ccco1	14%	1%	3%	11%	5.8%	?	-2%	14%
CCc1ccccc1NC(=O)CSc1nc2c(oc3ccccc32)c(=O)n1-c1ccccc1F	-20%	/	?	-21%	-2.9%	/	/	/
CC1CC(C)CN(Cc2nc3c(c(=O)n(C)c(=O)n3C)n2CCN2CCOCC2)C1 (stereo not given)	5%	3%	?	-24%	4.3%	7%	28%	-16%
O=C(CSC1CN(C(c2ccccc2)c2ccccc2)C1)N/N=C/c1ccc(Cl)cc1Cl	/	-2%	/	10%	/	-1%	/	9%
O=C(O)CCc1ccc(S(=O)(=O)Nc2ccc(OCc3ccccc3)cc2)cc1	/	-1%	?	7%	/	?	-2%[46.1 µM]	1%
Cc1c(/C=N/NC(=O)CNc2ccccc2)c2ccccn2c1C(=O)c1ccccc1	?	0%	-54%	-25%	-4.4%	?	?	7%
CCN1CCN(C(=O)CNC(=O)c2nn(-c3ccc(OC)cc3)c(=O)c3ccccc23)CC1	/	0%	-6%[46.1 µM]	18%	/	7%	/	1%
CN(CC1CCCN(CCc2ccc(Cl)cc2)C1)C(=O)c1ccoc1 (stereo not given)	/	2%	4%	-10%	/	3%	2%	-10%
COc1cc(C=CC(=O)OCC=Cc2ccc3c(c2)OCO3)cc(OC)c1OC	/	/	12%	?	/	/	?	6%
COc1ccc(-c2noc(CSc3ccccc3)n2)cc1OC	?	-17%	4%	27%	-2.9%	-12%	8%	-24%
COc1ccccc1NC(=O)c1sc2nc(-c3cc4cc(Cl)ccc4oc3=O)[nH]c(=O)c2c1C	-3%	/	/	-6%	-1.7%	/	20%[46.1 µM]	/
COc1cc(Cl)c(C)cc1NC(=O)c1sc2nc(C)cc(C)c2c1N	3%	/	-5%[46.1 µM]	-18%	-1.1%	/	?	/
CCC(C)NCC(=O)Nc1ccc(-c2nc3cc(NC(=O)CNC(C)CC)ccc3o2)cc1 (stereo not given)	0%	-3%	?	-7%	?	-3%	?	-6%
Cc1c(C)c2ccc(OCC(=O)N3CCC(C(=O)O)(c4ccccc4)CC3)c(C)c2oc1=O	/	4%	/	-13%	/	?	/	-4%
CN(CC(=O)Nc1ccc(C(N)=O)cc1)CC(=O)Nc1ccccc1Br	/	0%	/	-11%	/	0%	/	-12%
Cc1ccc(C(=O)N2CCN(S(=O)(=O)c3ccc(Br)cc3)CC2)o1	/	-2%	-27%[46.1 µM]	-20%	/	-21%	2%	-10%
Cc1cc(-c2nnc(SCC(=O)Nc3cccc(C)c3C)n2N)n[nH]1	/	3%	/	-6%	/	1%	/	2%
O=C(N=C1SC2CS(=O)(=O)CC2N1c1ccccc1)C1CC1 (stereo not given)	/	-1%	/	-12%	/	8%	/	-10%
CCCN1CCc2nc(N3CCN(CC)CC3)ncc2C1	5%	/	/	-4%	-1.7%	/	-20%[46.1 µM]	/
N#Cc1cccc(NC(=O)C2CCN(S(=O)(=O)c3ccc4c(c3)CCCN4C(=O)C3CCC3)CC2)c1	-12%	/	/	?	-1.0%	/	?	/
CCN1CCN(CC(=O)N/N=C/c2ccc(F)cc2F)CC1	5%	-14%	?	-19%	0.8%	-10%	12%	10%
CCS(=O)(=O)N1CCC(NC(=O)C2CCCCC2)CC1	9%	6%	16%	-15%	5.8%	6%	11%	0%
CC(NC(=O)COC(=O)Cc1ccccc1[N+](=O)[O-])c1ccccc1 (stereo not given)	-3%	-20%	-5%	-11%	-1.5%	-2%	5%	3%

A few values from the list.
LASV entry inh with O=C(NCc1ccccn1)C(=O)NCc1ccccn1 stands at 1%[46.1 µM]
StopGo reporter with O=C(N=C1SC2CS(=O)(=O)CC2N1c1ccccc1)C1CC1 (stereo not given) stands at -12%
LASV entry inh with CC1CC(C)CN(Cc2nc3c(c(=O)n(C)c(=O)n3C)n2CCN2CCOCC2)C1 (stereo not given) stands at 28%
Marburg entry inh with CC(=O)Nc1ccc(NC(=O)Nc2sc3nc4n(c(=O)c3c2C)CCC(C)CC4)cc1 (stereo not given) stands at -26%[46.1 µM]
SARS PLpro yeast with Cc1nn(-c2ccc(F)cc2)c2nc(N)c(C#N)c(-c3cccs3)c12 stands at -4%
StopGo reporter with COc1ccc(C(=O)N2CCN(c3cccc(Cl)c3)CC2)c(OC)c1 stands at 0%

Source: PubChem
